# PD-1 reversal = reversal of PD-1 mediated T-cell inhibition; 29,000 tested, under 10 active; activation, % (test concentration not listed); primary human CD4 T cells, PD-L1 beads, CellTiter-Glo 96 h;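 active = replicate mean of 50% or more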;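 also: 0% = median vehicle wells and 100% = positive control; 100 nL library stock added to about 50 µL; numbers are from one replicate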
# Shh pathway inh = Sonic Hedgehog pathway inhibition; Shh-LIGHT2 Gli-luciferase reporter, 30 h; inhibition, % (test concentration not listed); 22,000 tested, 2.1% active; AID 2313;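 active = replicate mean of 65% or more; inconclusive = mean lower but half the replicates past it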;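 also: pathway switched on by Shh-conditioned medium diluted 1 in 25 in low serum; 100 nL library stock added to about 40 µL; 0% = median of neutral wells and 100% = positive control level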
# YB-1 expr inh = YB-1 expression inhibition; U2OS, qRT-PCR YB-1 vs CDIP delta delta Cp, 16 h; active compounds read high; zero = DMSO, each unit about twofold; delta delta Cp (YB-1 minus CDIP) (no concentration beside the values); 30,000 tested, 0.37% active;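 active = delta delta Cp rounded down to an integer at or above 3, about 3 SD of DMSO wells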;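 also: higher means less YB-1 transcript or more CDIP transcript relative to DMSO; stock transfer was 100 nL into about 100 µL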
# MITF inhib = MITF inhibition. TRPM1 promoter luciferase, luminescence, 24 h. inhibition, % (concentration not given with the values). 37,000 tested, 0.28% active;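 active = most replicates at 85% or more, or half of them and the mean; inconclusive = half reach 85% but not the mean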;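 also: human melanocyte line stably carrying TRPM1 promoter luciferase reporter; 0% = vehicle wells and 100% = a positive control; the first replicate is given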
# The depositor's hits bear a star; u = inconclusive; x = not tested or not shown. Some of the compounds tested. The share of hits here may be higher or lower than overall.
SMILES,PD-1 reversal,Shh pathway inh,YB-1 expr inh,MITF inhib
Cc1ccc(S(=O)(=O)Nc2ccc3c(c2)C(=O)N([C@H](C)CO)C[C@H](C)[C@H](CN(C)S(=O)(=O)c2ccc(C)cc2)OCCCC[C@@H](C)O3)cc1,-2.0,x,-0.936,31.7
C[C@H]1CN([C@@H](C)CO)C(=O)Cc2cc(NC(=O)Nc3ccc4c(c3)OCO4)ccc2O[C@@H]1CN(C)C(=O)Nc1ccccc1,x,-12.0,0.0373,-2.4
C[C@@H]1CN([C@H](C)CO)C(=O)Cc2cc(NC(=O)Cc3cn(C)c4ccccc34)ccc2O[C@H]1CN(C)S(=O)(=O)c1ccc(Cl)cc1,1.1,4.6,-0.119,14.9
CC(C)NC(=O)N(C)C[C@H]1Oc2ccc(NC(=O)Cc3ccccc3)cc2C(=O)N([C@@H](C)CO)C[C@H]1C,0.0,x,-0.233,3.3
C[C@@H]1CN([C@@H](C)CO)C(=O)c2cccc(NC(=O)NC3CCCCC3)c2O[C@@H]1CN(C)Cc1ccccc1,1.6,7.9,-0.446,-1.3
COc1c(-c2ccccc2)oc2c(CC=C(C)C)c3c(c(OC)c2c1=O)C=CC(C)(C)O3,x,-8.3,-1.05,3.1
C[C@@H]1CN([C@H](C)CO)C(=O)Cc2cc(NC(=O)CCN3CCOCC3)ccc2O[C@H]1CN(C)S(=O)(=O)c1ccc(F)cc1,-0.5,28.1,0.207,1.7
O=C(c1ccc([N+](=O)[O-])cc1)N(Cc1cc2ccccc2[nH]c1=O)c1ccccc1,1.3,x,x,40.2
C[C@@H]1CCCCO[C@@H](CN(C)S(=O)(=O)c2ccccc2)[C@@H](C)CN([C@H](C)CO)C(=O)c2cc(NS(=O)(=O)c3cccs3)ccc2O1,-6.0,9.2,-0.0995,-3.7
COc1ccc(-c2n[nH]c(=S)n2-c2ccccc2C)cc1OC,-0.8,x,-0.183,1.4
NC(=O)OCC(O)COc1ccc(Cl)cc1 (stereo not drawn),x,-55.8,0.0347,-10.3
O=C(Nn1cnc2ccccc2c1=O)c1ccccc1,-0.4,x,0.048,-19.3

# Quoted from the listing:
# CC(C)NC(=O)N(C)C[C@H]1Oc2ccc(NC(=O)Cc3ccccc3)cc2C(=O)N([C@@H](C)CO)C[C@H]1C @ PD-1 reversal = 0.0
# C[C@@H]1CN([C@@H](C)CO)C(=O)c2cccc(NC(=O)NC3CCCCC3)c2O[C@@H]1CN(C)Cc1ccccc1 @ MITF inhib = -1.3

# (list continues)
SMILES,PD-1 reversal,Shh pathway inh,YB-1 expr inh,MITF inhib
CC(=O)Nc1ccc(OCC(O)CNC2CCCC2)cc1 (stereo not drawn),2.0,x,x,-6.6
CC1(C)CC[C@]2(C(=O)O[C@@H]3O[C@H](CO)[C@@H](O)[C@H](O)[C@H]3O)CC[C@]3(C)C(=CCC4[C@@]5(C)CC[C@H](O[C@@H]6O[C@H](C(=O)O)[C@@H](O[C@@H]7OC[C@H](O)[C@H](O)[C@H]7O)[C@H](O)[C@H]6O)C(C)(C)C5CC[C@]43C)C2C1 (stereo partly drawn),x,35.4,0.0826,x
COc1ccc(NC(=O)N(C)C[C@@H]2Oc3ccc(NS(=O)(=O)c4ccc(C)cc4)cc3C(=O)N([C@@H](C)CO)C[C@@H]2C)cc1,2.4,x,-0.612,2.5
CC(C)c1cc2c(cc1O)[C@@]1(C(=O)O)CCCC(C)(C)C1CC2 (stereo partly drawn),-0.6,15.1,x,27.5
COc1ccc2c(c1)c(=O)oc1c(C)c(OC(C(=O)O)c3ccccc3)ccc12 (stereo not drawn),0.0,-32.6,-0.221,5.3
CC(C)(C)c1cc(CN2CCN(CCC#N)CC2)cc(C(C)(C)C)c1O,-6.6,x,0.21,14.5
COc1ccc(CN(C)C[C@@H]2Oc3ccc(NC(=O)C4CCCCC4)cc3CC(=O)N([C@H](C)CO)C[C@H]2C)cc1,-0.8,x,0.133,-19.8
C[C@@H]1CN([C@@H](C)CO)C(=O)Cc2cc(NC(=O)Nc3ccc(C(F)(F)F)cc3)ccc2O[C@@H]1CN(C)S(=O)(=O)c1ccccc1,-5.2,-43.4,-0.456,44.1
Cc1cc(I)ccc1NC(=O)CN(c1c(C)cccc1C)S(C)(=O)=O,0.1,x,x,23.0
C[C@@H]1CN([C@H](C)CO)C(=O)c2cc(NC(=O)CCC(F)(F)F)ccc2O[C@H]1CN(C)Cc1ccccc1,2.2,x,-0.0208,-1.3
COc1ccc(CN(C)C[C@@H]2Oc3c(NC(=O)c4ccncc4)cccc3C(=O)N([C@@H](C)CO)C[C@H]2C)cc1,-0.5,1.4,-0.0277,8.9
Cc1ccc(S(=O)(=O)Nc2cccc3c2O[C@H](CN(C)S(=O)(=O)c2ccc(C)cc2)[C@@H](C)CN([C@H](C)CO)C3=O)cc1,0.7,-11.3,-0.0706,-3.8
CSc1cccc(N2C(=O)C3CC=C(C)CC3C2=O)c1 (stereo not drawn),0.3,17.3,0.0192,-31.8
COC(=O)c1ccc(C(=O)OC)c(NC(=O)c2ccccc2)c1,0.6,-12.5,-0.0744,-14.0
CNC[C@@H]1Oc2ccc(NS(=O)(=O)c3ccc(OC)cc3)cc2C(=O)N([C@H](C)CO)C[C@@H]1C,0.4,-48.0,-0.163,-7.0
Cc1cc(Cl)c(S(=O)(=O)N2CC(C)OC(C)C2)cc1OCC(N)=O (stereo not drawn),2.3,x,x,9.7
Cn1nnnc1SCCNCc1ccncc1,2.4,x,x,-17.5
C[C@@H]1CN([C@H](C)CO)C(=O)Cc2cc(NC(=O)c3ccncc3)ccc2O[C@H]1CN(C)Cc1ccc(C(=O)Nc2ccccc2N)cc1,-0.5,x,-0.0423,-9.3
COc1ccc(S(=O)(=O)n2nc(C)cc2C)cc1N(C)S(=O)(=O)c1ccccc1,-0.9,x,x,-0.6
CC(C)NC(=O)N(C)C[C@@H]1OCCCC[C@@H](C)Oc2ccc(NS(=O)(=O)c3ccc(F)cc3)cc2C(=O)N([C@H](C)CO)C[C@@H]1C,0.3,x,-0.152,-3.3
Cc1noc(C)c1NC(=O)N(C)C[C@H]1Oc2c(NC(=O)c3cnccn3)cccc2C(=O)N([C@@H](C)CO)C[C@H]1C,2.0,-48.4,0.322,1.6
CC(C)NC(=O)Nc1ccc2c(c1)C(=O)N([C@@H](C)CO)C[C@@H](C)[C@H](CN(C)C)O2,1.4,x,-0.492,4.3
C[C@@H]1CN([C@H](C)CO)C(=O)c2cccc(NC(=O)Nc3ccccc3)c2O[C@@H]1CN(C)Cc1ccc(-c2ccccc2)cc1,x,-29.8,-0.433,-14.3
Cc1cc2ncc(-c3ccnc(SCc4c(Cl)cccc4Cl)n3)c(C)n2n1,-0.3,-26.1,-0.476,-2.2

# One compound at a time (already shown). Order of screens: PD-1 reversal	Shh pathway inh	YB-1 expr inh	MITF inhib
# COC(=O)c1ccc(C(=O)OC)c(NC(=O)c2ccccc2)c1 is listed with 0.6	-12.5	-0.0744	-14.0
# Cc1cc2ncc(-c3ccnc(SCc4c(Cl)cccc4Cl)n3)c(C)n2n1 is listed with -0.3	-26.1	-0.476	-2.2
# CC(C)NC(=O)N(C)C[C@@H]1OCCCC[C@@H](C)Oc2ccc(NS(=O)(=O)c3ccc(F)cc3)cc2C(=O)N([C@H](C)CO)C[C@@H]1C is listed with 0.3	x	-0.152	-3.3
# CC(C)NC(=O)Nc1ccc2c(c1)C(=O)N([C@@H](C)CO)C[C@@H](C)[C@H](CN(C)C)O2 is listed with 1.4	x	-0.492	4.3
# C[C@@H]1CN([C@H](C)CO)C(=O)Cc2cc(NC(=O)c3ccncc3)ccc2O[C@H]1CN(C)Cc1ccc(C(=O)Nc2ccccc2N)cc1 is listed with -0.5	x	-0.0423	-9.3

# Next section:
SMILES,PD-1 reversal,Shh pathway inh,YB-1 expr inh,MITF inhib
C[C@H](CO)N1C[C@H](C)[C@H](CN(C)C(=O)Nc2ccc(F)cc2)Oc2ccc(NC(=O)NC3CCCCC3)cc2CC1=O,-0.7,8.3,-0.0482,-10.1
CCn1c(SCc2nc3ccccc3c(=O)[nH]2)nnc1-c1ccccc1C,1.7,x,x,11.8
C[C@@H]1CN([C@H](C)CO)C(=O)c2cccc(NC(=O)C3CCCCC3)c2O[C@H]1CN(C)S(=O)(=O)c1ccc(Cl)cc1,-1.5,21.6,0.0408,12.9
C[C@@H]1O[C@@H](O[C@H]2[C@@H]3C=CO[C@@H](O[C@@H]4O[C@H](CO)[C@@H](O)[C@H](O)[C@H]4O)[C@@H]3[C@@]3(CO)O[C@@H]23)[C@H](O)[C@H](OC(=O)/C=C/c2ccccc2)[C@H]1O,1.3,-16.0,-0.513,12.1
CC(=O)O[C@@H]1CC2C(C)(C)CCC[C@]2(C)C2CC[C@]3(C)C(=CC(=O)O[C@H]3c3ccoc3)[C@@]21C (stereo partly drawn),x,-3.8,0.118,43.2
CN1CCN(C(=O)CN(c2cccc3ccccc23)S(C)(=O)=O)CC1,4.1,x,x,-3.1
C[C@@H]1CN([C@H](C)CO)C(=O)c2cccc(NC(=O)C3CC3)c2O[C@@H]1CN(C)Cc1ccc(C(F)(F)F)cc1,1.1,-35.0,-0.392,-3.0
C/C(=C\CCC1(C)C2CCC(C2)C1(C)O)C(=O)O (stereo not drawn),-0.6,4.6,-0.483,13.5
CC1(C)CC(=O)c2cc(C(=O)NCc3ccco3)c(=O)n(-c3ccc(Cl)cc3)c2C1,-1.0,x,x,-1.2
CCC(=O)c1cn(CC(=O)NCCOc2ccc(Cl)cc2)c2ccccc12,-0.3,28.5,0.298,12.9
O=C(NCCCn1ccnc1)c1cc2c(s1)CCCC2,-0.3,x,x,1.5
CNC[C@@H]1OCCCC[C@@H](C)Oc2ccc(NC(=O)NC(C)C)cc2C(=O)N([C@H](C)CO)C[C@@H]1C,2.6,29.5,-0.0768,-27.9
Cc1ccc(S(=O)(=O)Nc2ccc3c(c2)C(=O)N([C@H](C)CO)C[C@H](C)[C@@H](CN(C)C(=O)Nc2cccc4ccccc24)OCCCC[C@@H](C)O3)cc1,x,x,0.344,-1.3
COc1ccc(CN(C)C[C@H]2OCCCC[C@@H](C)Oc3ccc(NS(=O)(=O)c4ccc(Cl)cc4)cc3C(=O)N([C@H](C)CO)C[C@@H]2C)cc1,x,u,-0.201,-17.1
C[C@H](CO)N1C[C@H](C)[C@H](CN(C)S(=O)(=O)c2cccs2)Oc2ccc(NC(=O)CCN3CCOCC3)cc2C1=O,0.1,-10.9,-0.238,-3.4
COc1ccc(S(=O)(=O)Nc2ccc3c(c2)CC(=O)N([C@H](C)CO)C[C@@H](C)[C@H](CN(C)S(=O)(=O)c2ccc(Cl)cc2)O3)cc1,1.3,-5.9,-0.185,1.7
CC(C)NC(=O)Nc1ccc2c(c1)C(=O)N([C@H](C)CO)C[C@H](C)[C@H](CN(C)CC1CCCCC1)OCCCC[C@@H](C)O2,2.3,6.2,0.162,-26.2
C[C@@H]1CN([C@@H](C)CO)C(=O)Cc2cc(NS(=O)(=O)c3ccc(Cl)cc3)ccc2O[C@@H]1CN(C)S(=O)(=O)c1cccs1,-1.0,-18.8,-0.087,16.0
O=C(CCc1nc(-c2ccccc2)no1)Nc1ccccc1Cl,-0.1,x,x,-15.4
CC(C)NC(=O)Nc1ccc2c(c1)CC(=O)N([C@@H](C)CO)C[C@@H](C)[C@@H](CN(C)C(=O)Nc1cccc3ccccc13)O2,0.2,-4.2,-0.143,-0.6
C[C@H]1CN([C@@H](C)CO)C(=O)c2cc(NC(=O)Cc3cn(C)c4ccccc34)ccc2O[C@H]1CN(C)S(=O)(=O)c1cccs1,0.8,x,0.0879,7.2
CCC(C)S(=O)(=O)c1oc(-c2ccc(C)cc2)nc1S(=O)(=O)c1ccccc1 (stereo not drawn),-14.2,x,x,51.2
Cc1noc(C)c1S(=O)(=O)Nc1ccc2c(c1)C(=O)N([C@@H](C)CO)C[C@@H](C)[C@H](CN(C)C(=O)Nc1ccccc1)O2,x,-50.6,0.183,4.2
Cc1nnc(SCc2cccc(C(=O)c3ccccc3)c2)[nH]c1=O,0.4,-6.9,0.0866,-6.2
C[C@H]1CN([C@@H](C)CO)C(=O)c2cccc(NC(=O)Nc3ccc4c(c3)OCO4)c2O[C@H]1CN(C)Cc1ccc2c(c1)OCO2,1.2,-21.7,-0.52,3.1
COc1ccc(-c2coc3cc(O)ccc3c2=O)cc1O,-1.4,14.8,0.963,-3.1
Cc1ccc(S(=O)(=O)Nc2ccc3c(c2)C(=O)N([C@H](C)CO)C[C@@H](C)[C@H](CN(C)Cc2ccccc2)O3)cc1,1.1,15.5,-0.0416,-3.8
O=C(Oc1cc(=O)oc2c1c(=O)n1c3c(cccc23)CC1)c1ccccc1,-1.1,-54.6,-0.851,-7.9
C[C@@H]1CN([C@H](C)CO)C(=O)Cc2cc(NC(=O)C3CC3)ccc2O[C@@H]1CN(C)Cc1ccc2c(c1)OCO2,0.0,-44.8,-0.31,-13.9
Cc1ccc(S(=O)(=O)N(C)C[C@H]2OCCCC[C@@H](C)Oc3ccc(NS(C)(=O)=O)cc3C(=O)N([C@H](C)CO)C[C@@H]2C)cc1,x,-9.6,-0.111,6.0
C[C@H](CO)N1C[C@H](C)[C@@H](CN(C)S(=O)(=O)c2ccc(F)cc2)Oc2ccc(NC(=O)Nc3ccccc3)cc2C1=O,1.5,-25.1,-0.0128,-6.2

# Bioassay records (PubChem BioAssay)
